Compound activity deposited in PubChem by several laboratories.
Vif A3G: HIV-1 Vif–A3G interaction blockers – biochemical, TR-FRET, GST-Vif 1-94, biotin-A3G peptide, dose response retest, primary screen (AID 1117319) | TR-FRET GST-Vif / biotin-A3G peptide binding; higher % means a stronger effect; test concentration not given here; strong numbers were not always called active | inhibition, %; hits with a dose series show IC50 in µM | actives 0.57% (n = 260,000);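 active means above the screen mean plus three standard deviations and confirmed in dose response; inconclusive means results disagree or hit not tested in dose response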;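 further: Vif residues 1-94 fused to GST binding biotinylated APOBEC3G peptide 110-148; 0% = full assay without inhibitor and 100% = GST in place of GST-Vif; retest series ran down from 100 µM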
FGF22 binding: binders of recombinant human FGF22 by thermal shift | SYPRO orange fluorescence; percent of sucrose octasulfate shift, DMSO zero | calls only at 9.99 µM | actives 1.5% (n = 340,000);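 active means melting point raised past a set limit in the mean and every replicate; inconclusive means no clear call; three in four hits are not shown here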
Target sequence (Q9HCT0 whole entry, looked up): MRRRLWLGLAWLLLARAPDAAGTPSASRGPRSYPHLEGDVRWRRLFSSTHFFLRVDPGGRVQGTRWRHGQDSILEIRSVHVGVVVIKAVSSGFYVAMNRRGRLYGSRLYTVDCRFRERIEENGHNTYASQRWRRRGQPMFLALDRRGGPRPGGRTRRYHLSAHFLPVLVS
Ecoli growth: blocks Escherichia coli growth | OD600, 23 h; hits give low values | OD600 absorbance (no concentration beside the values) | actives 0.21% (n = 330,000);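 active means OD600 absorbance below the run mean of sample wells minus 3.6 SD, in any replicate, cut at about 0.56 in these data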;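 further: stock transfer was 300 nL into about 60 µL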
HNF4A DNA FP: change in binding of human HNF4 alpha to DNA; HNF4a-FITC DNA binding, fluorescence polarization, 1 h; P41235; activity change, % at 10 µM; actives 0.3% (n = 360,000); in the data active means activity change above about 30%, passing the limit was not always enough;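 further: controls were the assay level and a saturating level of protein; the project sought stronger binding though the title names inhibitors; some compounds called inactive have numbers as strong as hits; positive values seem to mean higher polarization but the record does not say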
Target sequence (P41235 whole entry, looked up): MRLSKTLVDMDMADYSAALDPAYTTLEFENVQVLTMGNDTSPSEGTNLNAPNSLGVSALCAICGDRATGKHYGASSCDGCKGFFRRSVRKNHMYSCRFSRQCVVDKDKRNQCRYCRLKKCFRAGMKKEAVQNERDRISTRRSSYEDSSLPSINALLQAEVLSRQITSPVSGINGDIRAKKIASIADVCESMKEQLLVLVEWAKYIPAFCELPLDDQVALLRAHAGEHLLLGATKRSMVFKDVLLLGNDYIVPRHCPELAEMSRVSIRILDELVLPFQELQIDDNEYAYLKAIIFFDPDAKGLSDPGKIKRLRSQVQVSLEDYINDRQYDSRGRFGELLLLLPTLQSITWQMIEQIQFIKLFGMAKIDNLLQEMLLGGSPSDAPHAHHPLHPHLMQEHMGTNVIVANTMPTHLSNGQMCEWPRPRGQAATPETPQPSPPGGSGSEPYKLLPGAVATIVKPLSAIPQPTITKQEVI
Ecoli rRNA inh: selective bacterial rRNA inhibition in E. coli; actives 1.6% (n = 350,000); GFP signal change (wild-type ribosome), % (concentration not given with the values); E. coli WT GFP vs humanized-ribosome RFP mutants, fluorescence, 24 h; hits give low values; DMSO median 0, no signal -100; AID 720706;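 active means significant combined selectivity score with lowered wild-type GFP, culture density cut under 30%, mutant RFP and density less affected; inactive means any of these conditions unmet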; further: one replicate is shown; some compounds called inactive have numbers as strong as hits
ALR inh: blocks human ALR sulfhydryl oxidase activity | purified ALR, DTT oxidation, H2O2 HRP-luminol luminescence | inhibition, % (concentration not given with the values) | actives 3.8% (n = 290,000);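 active means mean and each replicate at 75% or more; inconclusive means only one of the two met; inactive means neither met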;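 further: stock transfer was 7.5 nL into about 7.5 µL; 0% = neutral wells and 100% = wells with inactivated enzyme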
Target sequence (P55789 whole entry, looked up): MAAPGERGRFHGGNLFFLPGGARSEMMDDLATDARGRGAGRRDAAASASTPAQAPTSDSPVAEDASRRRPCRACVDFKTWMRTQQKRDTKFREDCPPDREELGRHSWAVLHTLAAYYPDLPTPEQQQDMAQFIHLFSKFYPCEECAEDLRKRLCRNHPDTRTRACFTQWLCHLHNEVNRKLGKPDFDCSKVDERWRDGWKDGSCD
AF4-AF9 inh: inhibitors of human MLL-AF4/AF9 interaction; AlphaScreen, biotin-AF4 peptide binding to FLAG-AF9; inhibition, % at 10 µM; actives 0.47% (n = 350,000);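 active means every replicate reaching a set inhibition limit, whatever the replicate mean, cut at about 25% in these data; inconclusive means mean inhibition reaches that limit but some replicates miss it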;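 further: 0% = plate neutral control median and 100% = total signal loss; the record names both 10 and 1 µM as test concentration; the first replicate is given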
Ecoli rRNA inh OD600: second read-out of Ecoli rRNA inh, no call of its own (marks repeat the call); OD600 change, %; measured here: OD600 growth;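 optical density of the mix in the first replicate; 0 = DMSO median and -100 = no signal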
Ecoli rRNA inh RFP: also measured in Ecoli rRNA inh; calls as there; RFP signal change, %; measured here: RFP humanized mutant strains;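 first replicate; 0 = DMSO median and -100 = no signal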
Starred values were filed as active, the others as inactive; i = inactive; ? = inconclusive; · = not tested or not shown; + = active, no number; & = joins results of further samples.

Vif A3G,FGF22 binding,Ecoli growth,HNF4A DNA FP,Ecoli rRNA inh,Ecoli rRNA inh OD600,Ecoli rRNA inh RFP,ALR inh,AF4-AF9 inh,SMILES
·,i,·,·,-2,-15,1.6,·,6.1,C[C@H]1CN([C@@H](C)CO)C(=O)c2cc(NS(C)(=O)=O)ccc2O[C@H]1CN(C)Cc1ccc(Oc2ccccc2)cc1
31%,i,0.71,6.1,·,·,·,-2,1.3,O=C(NCc1cccs1)C(=O)NCC1OCCCN1S(=O)(=O)c1ccc(F)cc1 (centres undefined)
3%,i,0.68,1.4,12,12,2.0,6,-2.5,COc1ccc(C(=O)NCc2nnc(SCC(=O)c3ccccc3)n2C)cc1
11%,·,0.65,3.1,·,·,·,-2,·,O=C1c2ccccc2S(=O)(=O)c2cc(C(=O)N(c3ccccn3)c3ccccn3)ccc21
-4%,i,0.73,2.4,-1,3,-1.0,·,0.6,COc1cc(NC(=O)c2ccc(CNc3c(N4CCOCC4)c(=O)c3=O)cc2)cc(OC)c1
-8%,i,0.73,2.9,3,3,-1.1,·,-0.7,CCCNC(=O)Nc1ccccc1SC
-6%,·,0.62,-2.9,-20,-19,-5.8,3,-0.8,CCOC(=O)c1cccc(NS(=O)(=O)Cc2ccccc2)c1
3%,·,0.72,1.0,·,·,·,4,·,COc1ccc(C2CC(C(F)(F)F)n3ncc(C(=O)Nc4cccc(O)c4)c3N2)cc1OC (centres undefined)
·,i,0.64,2.3,6,6,1.2,27,-2.6,O=C(CSc1nncn1-c1ccccc1)Nc1ccccc1
0%,i,0.67,5.0,10,13,0.9,-42,2.6,O=c1c2ccccc2nc2n1CCO2
2%,i,0.69,-2.7,2,2,-0.6,·,-3.4,O=C(CSc1nc2c(sc3ccccc32)c(=O)n1CCCN1CCOCC1)NCC1CCCO1 (centres undefined)
·,i,·,0.0,4,9,-2.3,·,-0.8,CS(=O)(=O)Nc1ccc(-c2cccc3nccn23)cc1
-1%,·,0.66,0.8,·,·,·,0,·,Cc1ccc(-n2c(SCC(=O)OC(C)C)nnc2-c2cnccn2)cc1
3%,i,0.59,-17,-52,-76,56,-108,22,CN(C)CCc1cc2c(c3c1ccc1ccccc13)OCO2
·,i,·,-3.9,15,19,0.0,·,-3.1,CCOC(=O)[C@@H]1CSCCS(=O)(=O)N1
·,i,0.62,0.4,-5,-8,-1.6,0,0.0,CS(=O)(=O)N(CC(=O)Nc1ccc(Br)cc1)C1CCCCC1
·,i,0.7,-0.8,-11,-36,1.1,12,0.0,C=CCN(c1ccccc1)S(=O)(=O)c1cc(C(=O)NC2=NCCS2)ccc1Cl
-10%&0%,·,0.79,-2.8,·,·,·,·,·,CCOc1ccc(CCNC(=O)CN2CCN(Cc3ccc(F)cc3)C2=O)cc1OCC
·,i,0.66,-3.9,-4,3,-4.8,17,7.1,COc1ccccc1/C=C/c1nc2ccc(OC(C)=O)cc2c(=O)o1
9%,·,0.71,-1.4,·,·,·,4,·,CCOC(=O)N1CCC(NS(=O)(=O)c2cc(Br)cc3c2N(C(=O)CC)CC3)CC1
-1%,i,0.73,4.2,3,3,0.4,-82,-0.5,Cc1nc2ccc(S(=O)(=O)NC(C(=O)NCc3cccs3)C(C)C)cc2s1 (centres undefined)
1%,i,0.72,3.9,9,13,15,1,-7.6,O=C(COC(=O)CCc1nc2ccccc2c(=O)[nH]1)NCc1ccc(F)cc1
·,i,·,·,-1,-10,0.9,·,-2.2,C[C@@H]1CN([C@H](C)CO)C(=O)c2cccc(NS(=O)(=O)c3ccc(F)cc3)c2O[C@H]1CN(C)S(=O)(=O)c1ccc(Cl)cc1
0%,i,·,-1.5,28&3,15&-4,4.6&-3.5,·,-0.3&-1.5,CCCN(C)C[C@@H]1Oc2ncc(Br)cc2C(=O)N([C@@H](C)CO)C[C@H]1C
2%,·,0.74,0.7,·,·,·,-3,·,COc1cccc(Nc2nc(-c3ccc4c(c3)OCCO4)cs2)c1
·,i,·,-0.4,11,10,1.8,·,3.2,Nc1ncnc2c1ncn2[C@@H]1O[C@H](C(=O)NCc2ccc3c(c2)OCO3)[C@@H](O)[C@H]1O
-1%,i,0.71,-1.2,10,11,2.5,-15,2.0,Cc1cc(=O)oc2cc(OCC(=O)N(C)C3CCS(=O)(=O)C3)c(Cl)cc12 (centres undefined)
1%,·,0.69,-0.6,·,·,·,-4,·,O=S(=O)(NC1CCCCC1N1CCN(c2ccc(F)cc2)CC1)c1ccc(Cl)cc1 (centres undefined)
10%,i,0.68,2.9,-19,-10,-2.3,37,-4.8,O=C1N=c2ccccc2=C1c1c(O)n(-c2cccc(F)c2)[nH]c1=O
·,+,·,·,0,18,3.8,·,-0.4,Cc1cccc(-c2ccc([C@H]3[C@H]4CN(S(=O)(=O)c5cccc(C)c5)CCCCN4[C@H]3CO)cc2)c1
·,i,·,·,-3,-1,-0.7,·,-2.1,O=C(N[C@H]1CC[C@@H](CC(=O)N2CCC(Cc3ccccc3)CC2)O[C@H]1CO)c1cnccn1
-14%,·,0.71,-1.0,·,·,·,-2,·,CC1=C(/C=C/C(=O)O)C(C)(C)CCC1
?,·,0.72,5.0,·,·,·,-6,·,CCOC(=O)c1sc(NC(=O)CSc2nc(C)cc(C)n2)c(C#N)c1C
·,i,·,·,1,4,-0.5,·,0.2,Cc1noc(C)c1NC(=O)Nc1ccc2c(c1)C(=O)N([C@@H](C)CO)C[C@@H](C)[C@H](CN(C)Cc1ccccc1)O2
·,i,·,-2.1,-46,-73,-22,0,-7.7,Cc1ccc(S(=O)(=O)NC(C(=O)Oc2ccc3c(C(F)(F)F)cc(=O)oc3c2)c2ccccc2)cc1 (centres undefined)
·,i,·,3.6,1,5,-0.1,·,-2.8,CCOC(=O)C1(C)CCN1C(=O)c1cccc(C(F)(F)F)c1 (centres undefined)
·,·,0.68,0.4,26,19,2.8,-7,-4.1,C=CCNC(=O)NC(=O)COC(=O)c1nc2nccc(C)n2n1
22%,·,0.77,-0.2,·,·,·,15,·,Cc1ccc(S(=O)(=O)N2CCN(Cc3cccc(C)c3O)CC2)cc1
·,i,·,4.2,-9,-6,-3.6,·,-2.7,Cc1cn([C@H]2C[C@H](O)[C@@H](/C=C/C(=O)NCCC(c3ccccc3)c3ccccc3)O2)c(=O)[nH]c1=O
?,i,0.68,17,17,13,0.9,·,2.2,O=c1[nH]c2ccc(N=Cc3c(O)ccc4cc(Br)ccc34)cc2[nH]1
1%,i,0.72,-2.8,-8,-1,-6.4,0,1.2,CCOC(=O)C1CCN(c2c(N3CCN(Cc4ccccc4)CC3)c(=O)c2=O)CC1
·,i,·,·,-4,-25,0.6,·,8.8,C/C=C/c1ccc2c(c1)O[C@@H](CN(C)Cc1ccccc1F)[C@H](C)CN([C@@H](C)CO)S2(=O)=O
·,i,·,1.8,3,14,0.1,·,2.7,O=c1[nH]c2cccc(Cl)c2c2ccccc12
·,i,·,·,2,4,-3.1,·,-2.2,CCCC(=O)Nc1ccc2c(c1)C(=O)N(C)C[C@H](OC)[C@H](C)CN(C(=O)c1ccccn1)[C@@H](C)CO2
·,i,0.66,0.7,-6,-6,-0.3,-11,4.6,COc1cccc(N(C(=O)c2snc(C(N)=O)c2N)C(C(=O)NCC2CCCO2)c2cccs2)c1 (centres undefined)
5%,i,0.74,1.1,-1,-12,-3.1,-8,-2.9,Cc1ccc2oc(=O)c3cnn(CC(=O)N4CCc5ccccc5C4)c3c2c1
·,i,·,·,4,6,0.9,·,3.6,O=C(C[C@@H]1C[C@@H]2c3cc(NC(=O)C4CCOCC4)ccc3O[C@@H]2[C@@H](CO)O1)NCc1ccccc1F
-7%,i,0.66,-1.1,5,5,2.3,5,-0.1,Cc1ccccc1CCN(C(=O)c1csnn1)C(C(=O)NC1CCCC1)c1ccncc1 (centres undefined)
·,i,·,·,4,12,0.8,·,-3.0,C[C@@H]1CN([C@H](C)CO)C(=O)c2cccc(NS(C)(=O)=O)c2O[C@@H]1CN(C)C(=O)Nc1ccccc1
·,i,·,-3.5,-24,-25,-7.4,-12,1.8,CC1CCc2sc(C(=O)N/N=C/C3CCCCC3)cc2C1 (centres undefined)

Next results:
Vif A3G,FGF22 binding,Ecoli growth,HNF4A DNA FP,Ecoli rRNA inh,Ecoli rRNA inh OD600,Ecoli rRNA inh RFP,ALR inh,AF4-AF9 inh,SMILES
·,i,·,·,3,-2,-0.8,·,2.1,CNC[C@H]1OCCCC[C@H](C)Oc2ccc(NS(=O)(=O)c3ccc(Cl)cc3)cc2C(=O)N([C@@H](C)CO)C[C@H]1C
·,i,·,·,-3,-15,3.5,·,-1.0,C[C@@H]1CN([C@@H](C)CO)C(=O)c2cc(NS(=O)(=O)c3cccs3)ccc2O[C@@H]1CN(C)S(=O)(=O)c1ccccc1
4%,i,0.62,4.7,-14,-12,0.8,0,-0.3,O=C(CC1NCCc2ccccc21)Nc1cccc(Cl)c1 (centres undefined)
·,i,·,·,2,-4,-0.5,·,3.2,C[C@@H]1CN([C@@H](C)CO)C(=O)Cc2cc(NC(=O)Cc3cn(C)c4ccccc34)ccc2O[C@H]1CN(C)C(=O)Nc1ccccc1
13%,·,0.65,·,·,·,·,3,·,Cc1ccc(NC(=O)CCNS(=O)(=O)c2cc(Br)cnc2N)c(Cl)c1
·,i,0.67,2.7,18,8,-9.0,-1,-1.3,NC(=O)COC(=O)C12CC3CC(CC(O)(C3)C1)C2
·,·,0.75,1.2,·,·,·,-13,·,CCOC(=O)Cn1c(=NC(=O)c2cccs2)sc2cc(C(=O)OC)ccc21
20%&2%,i,0.65,-1.2,2,0,2.5,-4,9.8,CCOc1ccc(CN2CCN(S(=O)(=O)c3ccc(NC(C)=O)cc3)CC2)cc1OC
·,i,0.69,0.8,6,18,7.1,-7,-3.3,COc1cccc(-c2cc3nc4c(c(N5CCC6(CC5)OCCO6)n3n2)CCC4)c1
-3%,i,0.63,-1.0,-2,-9,-3.7,-16,2.4,Cn1nccc1NC(=O)NC(=O)c1c(Cl)cccc1Cl
·,i,·,·,-5,-9,-0.2,·,1.0,C[C@@H]1CN([C@H](C)CO)C(=O)c2cc(NS(=O)(=O)c3cccs3)ccc2O[C@@H]1CN(C)C(=O)Nc1cccc2ccccc12
-7%,i,0.67,5.5,-37,-39,-11,-9,-0.4,COC(OC)c1ccc(C#N)c(SCc2ccccc2)n1
-3%,·,0.75,-2.6,·,·,·,-4,·,COc1ccc(Nc2oc(COc3ccc(OC)cc3)nc2C#N)cc1
·,·,0.69,-1.4,12,14,-2.6,7,-0.1,CCNC(=O)C(=O)Nc1ccc(OC)c(Cl)c1
15%,i,·,-6.3,6,18,3.3,1,-3.9,S=c1[nH]nc(-c2cc(-c3ccccc3)n[nH]2)n1/N=C/c1c(Cl)cccc1Cl
·,i,·,1.9,1,0,-2.6,·,0.2,CCCNC(=O)C1(C)CCN(Cc2ccc(Cl)c(Cl)c2)C1 (centres undefined)
·,i,·,·,4,8,-0.4,·,6.1,O=C(C[C@@H]1CC[C@H]2[C@@H](COC[C@H](O)CN2Cc2ccccc2)O1)N[C@@H]1CCN(Cc2ccccc2)C1

Record cards, as listed above. Screens in order: Vif A3G, FGF22 binding, Ecoli growth, HNF4A DNA FP, Ecoli rRNA inh, Ecoli rRNA inh OD600, Ecoli rRNA inh RFP, ALR inh, AF4-AF9 inh
Listed for `O=C(C[C@@H]1CC[C@H]2[C@@H](COC[C@H](O)CN2Cc2ccccc2)O1)N[C@@H]1CCN(Cc2ccccc2)C1` = ·, i, ·, ·, 4, 8, -0.4, ·, 6.1
Listed for `S=c1[nH]nc(-c2cc(-c3ccccc3)n[nH]2)n1/N=C/c1c(Cl)cccc1Cl` = 15%, i, ·, -6.3, 6, 18, 3.3, 1, -3.9

Not all compounds are listed, so the mix of outcomes need not match the whole.
